Mtb bLac sens = beta-lactam sensitization of Mtb H37Rv, H37Rv; M. tuberculosis H37Rv growth with meropenem, percent inhibition; hits of this screen are not shown here; inhibition, % at 25 µM; actives 0.27% (n = 330,000); AID 434955, 2010;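 active = about 74% or more and at least 40 points above the plate without the antibiotic, then above 30% in a dose series; inconclusive = first-round hits that could not be retested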;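 also: growth measured after seven days incubation then overnight dye step; 0% = bacteria only wells and 100% = bacteria with antibiotic; twin plates without the antibiotic show which effects depend on it; some results filed as inactive read as strong as hits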
Starred values were filed as active, the others as inactive; ? = inconclusive.

SMILES	Mtb bLac sens
CS(=O)(=O)c1ccc(Cl)c(NC(=O)COC(=O)c2ccc(S(=O)(=O)N3CCCC3)cc2)c1	1.7
CCCCC(CC)CO (stereo not given)	-5.2
CCOc1ccc(NC(=O)COC(=O)CNC(=O)c2ccc(-c3ccccc3)cc2)cc1	67.3
CCN(CC)S(=O)(=O)c1ccc(/C=C/C(=O)OCC(=O)Nc2cccnc2Cl)cc1	46.1
Cc1nc2ccc(NC(=O)CSc3ccccc3)cc2s1	6.7
CCN(CC(=O)Nc1ccc(NC(C)=O)cc1)C(=O)c1ccccc1SCC(=O)N1CCCC1	3.6
COc1ccc(NC(=O)CN(c2ccccc2OC)S(=O)(=O)c2cccs2)cc1Cl	-10.5
Cc1csc(CNc2ncnc3ccc(-c4cccnc4)cc23)c1	10.2
CCN(CC(=O)Nc1ccc2c(c1)OCCO2)CC(=O)Nc1ccc(C)c([N+](=O)[O-])c1	-2.7
O=C(Nc1ccccc1)C1CCN(S(=O)(=O)c2cccs2)CC1	-5.3
O=C(Nc1cccc(-n2cnnn2)c1)c1ccc(C(F)(F)F)cc1	-1.8
CN(C)c1ccc(S(=O)(=O)N2CCCCC2)cc1NC(=O)CN1C(=O)NC(C)(c2ccccc2)C1=O (stereo not given)	-3.2
CSCCC(NC(=O)COc1ccccc1)C(=O)N1CCC(C(N)=O)CC1 (stereo not given)	-7.0
O=C(COC(=O)CCc1nc2ccccc2c(=O)[nH]1)Nc1ccccc1OC(F)F	7.8
CC(C)(C)OC(=O)C[C@H]1C/C=C\C[C@@H](CC(=O)N[C@H](CO)Cc2ccccc2)C(=O)N2CCC[C@H]2COC1=O	0.0
CCCCC1(Br)C(=O)N(c2ccccc2)N(c2ccccc2)C1=O	38.4
CCCCc1nnc(NC(=O)Cc2ccc(S(=O)(=O)N3CCOCC3)s2)s1	-1.9
COCCN(C(=O)c1cc2c(s1)CCCCC2)c1c(N)n(CC(C)C)c(=O)[nH]c1=O	-6.4
O=C(Nc1ccc(Br)cc1)C1CCCN(C2=NS(=O)(=O)c3ccccc32)C1 (stereo not given)	-2.9
NCCc1c[nH]c2ccc(C(N)=O)cc12	-1.3
C=CCN(c1ccccc1OC)S(=O)(=O)c1cccc(C(=O)OCC(=O)N2CC(C)OC(C)C2)c1 (stereo not given)	1.2
O=[N+]([O-])c1ccc(CSc2ccc(S(=O)(=O)N3CCCC3)cn2)cc1	3.9
CC(=O)Nc1ccccc1NC(=O)C/C(C)=N/NC(=O)c1cccnc1	-0.7
N#CCCN(C(=O)COC(=O)c1cc(=O)c2ccccc2o1)c1ccccc1	-1.7
CNc1ccc(S(=O)(=O)NCC(=O)OC(C)C(=O)N(C)Cc2ccccc2)cc1[N+](=O)[O-] (stereo not given)	0.4

The list goes on; it opens with the 6 that closed the last part.
SMILES	Mtb bLac sens
NCCc1c[nH]c2ccc(C(N)=O)cc12	-1.3
C=CCN(c1ccccc1OC)S(=O)(=O)c1cccc(C(=O)OCC(=O)N2CC(C)OC(C)C2)c1 (stereo not given)	1.2
O=[N+]([O-])c1ccc(CSc2ccc(S(=O)(=O)N3CCCC3)cn2)cc1	3.9
CC(=O)Nc1ccccc1NC(=O)C/C(C)=N/NC(=O)c1cccnc1	-0.7
N#CCCN(C(=O)COC(=O)c1cc(=O)c2ccccc2o1)c1ccccc1	-1.7
CNc1ccc(S(=O)(=O)NCC(=O)OC(C)C(=O)N(C)Cc2ccccc2)cc1[N+](=O)[O-] (stereo not given)	0.4
O=S(=O)(c1ccccc1)N1CN(c2ccc(F)cc2F)c2nc3ccccc3nc21	-13.2
C=CC[C@@H](CC(=O)OC(C)(C)C)C(=O)OC[C@@H]1CCCN1C(=O)[C@H](CC=C)CC(=O)NCCO	-7.6
CCn1nnnc1SCC(=O)N(C)C1CCS(=O)(=O)C1 (stereo not given)	-5.7
CC(=O)Nc1ccc(C(=O)OCC(=O)N2CC3(C)CC2CC(C)(C)C3)cc1 (stereo not given)	-0.6
COC(=O)C1=C(c2ccc(C(C)=O)cc2)C[C@@H]2CC[C@H]1N2C(=O)NCCOc1ccccc1Cl	2.0
Cc1ccc(NC(=O)c2ccc3c(c2)C(=O)N(c2ccccc2C)C3=O)nc1	-3.4
COc1ccc([C@H]2CC(=O)C=C(c3cc(F)ccc3OC)C2)cc1	36.8
CC(C)(C)OC(=O)N1Cc2[nH]c3ccccc3c2C[C@@H]1C(=O)O	-10.0
COc1ccc([C@H]2CC(=O)C=C(c3cc(Cl)ccc3C)C2)cc1	7.3
C[C@H](NC(=O)c1nc[nH]c1C(=O)NCc1ccc(CNC(=O)OC(C)(C)C)cc1)C(=O)OCc1ccccc1	-2.7
C=CCn1c(C)cc(C(=O)COC(=O)c2cncc(Br)c2)c1C	94.3
C[C@H](CO)N1C[C@H](C)[C@@H](CN(C)S(=O)(=O)c2ccc(F)cc2)Oc2c(NC(=O)Nc3ccc4c(c3)OCO4)cccc2C1=O	9.4
CN(C)c1ccc(C(=O)N2CCN(C(=O)C3CCCO3)CC2)cc1 (stereo not given)	-4.4
O=C(NCC1CCCO1)c1ccc(N2C(=O)C3CCCCC3C2=O)cc1 (stereo not given)	-3.2
COc1ccc(-c2sc3ccc(N4CCOCC4)cc3c2C#CCO)cc1	92.3
CC(NC(=O)COC(=O)c1ccc[nH]c1=O)c1ccccc1 (stereo not given)	-2.3
Cc1ccccc1-c1cc(C(=O)NCc2cccc(Br)c2)nn1CC1CC(c2cccc([N+](=O)[O-])c2)=NO1 (stereo not given)	10.2
COC(=O)[C@]1(C)N[C@H](CN(C)S(=O)(=O)c2ccc(OC)cc2)[C@@H]2C(=O)N(C)C(=O)[C@@H]21	3.0
COC(=O)[C@]1(Cc2ccccc2)N[C@H](CN(C)C(=O)c2ccc(C(C)(C)C)cc2)[C@@H]2C(=O)N(Cc3ccccc3)C(=O)[C@@H]21	-2.4
O=C(Nc1cccc(S(=O)(=O)N2CCOCC2)c1)C1CC1	4.8
CC(C#N)CCC#N (stereo not given)	0.7
COc1cc(CCC(=O)N2CCN(c3ccccc3)CC2)cc(OC)c1OC	3.7
COc1cc(OC)cc(-c2c(-c3cccs3)c3cc(-c4ccc5c(c4)OCCO5)ccc3n2C)c1	9.1
COc1ccc(NC(=O)COC(=O)/C=C/c2cccs2)c(OC)c1	2.4
O=C(Nc1cccc(S(=O)(=O)NC2=NCCC2)c1)c1cn(-c2ccccc2)nc1-c1ccc(F)cc1	-3.7

Fetched one by one from the entries so far (3):
SMILES	Mtb bLac sens
COc1ccc([C@H]2CC(=O)C=C(c3cc(F)ccc3OC)C2)cc1	36.8
COC(=O)C1=C(c2ccc(C(C)=O)cc2)C[C@@H]2CC[C@H]1N2C(=O)NCCOc1ccccc1Cl	2.0
O=C(NCC1CCCO1)c1ccc(N2C(=O)C3CCCCC3C2=O)cc1 (stereo not given)	-3.2

Later entries.
SMILES	Mtb bLac sens
C#CCOCCOCCOCCNc1nc(N2CCN(C(=O)CCCCCCCCCCNC(=O)[C@H]([C@@H](C)CC)n3cc(CCCCN=C(N)N)nn3)CC2)nc(N2CCN(C(=O)CCCCCCCCCCNC(=O)[C@H](CO)n3cc(CCCCCN)nn3)CC2)n1	99.4
O=C(COC(=O)c1ccc(F)cc1)NC1CC1	-3.5
Cc1ccsc1C(=O)OCC(=O)NC1CCCCC1C (stereo not given)	1.0
COc1ccc(CN2CCN(C(=O)c3ccc4c(c3)CCC4)CC2)cc1OC	-1.1
CC1(c2cccc(Br)c2)NC(=O)N(CC(=O)N2CCN(C(=O)c3ccco3)CC2)C1=O (stereo not given)	-4.1
CC1CCCCC12NC(=O)N(CC(=O)N1CCN(C(=O)c3ccco3)CC1)C2=O (stereo not given)	-3.3
COc1ccc(-c2sc3cc4c(cc3c2C#Cc2ccc(N)cc2)OCO4)cc1	58.0
CC(C)=CCC[C@](C)(O[C@@H]1O[C@H](CO[C@@H]2OC[C@H](O[C@@H]3OC[C@@H](O)[C@H](O)[C@H]3O)[C@H](O)[C@H]2O)[C@@H](O)[C@H](O)[C@H]1O)C1CC[C@]2(C)C1[C@H](O)CC1[C@@]3(C)CC[C@H](O)C(C)(C)C3[C@@H](O)C[C@]12C (stereo not given in full)	3.3
COc1ccc(NC(=O)c2ccc3c(c2)OCO3)cc1S(=O)(=O)N1CCOCC1	-5.5
COc1cc2nc(CN3CCN(S(=O)(=O)c4ccccc4C(F)(F)F)CC3)[nH]c(=O)c2cc1OC	-5.5
CCC(C)(C)C1CCc2[nH]nc(C(=O)NC3CCCCC3)c2C1 (stereo not given)	26.4
C=CC[C@H](CC(=O)N(CCO)Cc1ccccc1)C(=O)N[C@@H](COC(=O)[C@@H](CC=C)CC(=O)OC(C)(C)C)Cc1c[nH]c2ccccc12	11.5
Cc1ccc(S(=O)(=O)N2CCOCC2)cc1C(=O)NCC1CCCCC1	-8.3
O=C1NCCO1	-4.6
CC(C)=C(NC(=O)c1ccccc1)C(=O)NC(Cc1ccccc1)C(=O)O (stereo not given)	-11.5
O=C(NNC(=O)c1ccc(Br)s1)c1csc(N2CCOCC2)n1	15.7
Cc1cccc(C(=O)NNC(=S)NC(=O)c2cccs2)c1	?
Cc1ccccc1NC(=O)Cc1nc(COC(=O)Cc2ccccc2)cs1	-1.5
COc1cc2c(cc1OC)C1[C@H]3C(=CC[C@H]1OC2O)CCN3C (stereo not given in full)	-2.2
COC(=O)c1ccc(NC(=O)NC(=O)Oc2ccccc2)cc1	-0.2
C/C=C/c1ccc(OCCOCCNCc2ccccc2)c(OC)c1	-3.8
CC(C)(C)c1cc(CCC(=O)NNC(=O)c2ccncc2)cc(C(C)(C)C)c1O	-13.1
O=C1CN(S(=O)(=O)c2ccc(F)cc2)CCN1	-1.6
CCCc1nc(SCC(=O)Nc2nccs2)c2ccccc2n1	-0.4
COc1ccc(C(CNC(=O)CN(C)S(=O)(=O)c2ccc(C)cc2)N2CCCC2)cc1 (stereo not given)	0.5

Next part.
SMILES	Mtb bLac sens
COc1ccc(-c2cc3ccc(OC)cc3cn2)cc1	8.4
C[C@H](Cc1ccccc1)Nc1ncnc2c1ncn2[C@@H]1O[C@H](CO)[C@@H](O)[C@H]1O	-6.4
COc1ccc(C(=O)c2c3ccccc3[n+]([O-])n2Cc2ccc(C(N)=O)cc2)cc1	-1.4
Cc1ccc(S(=O)(=O)N2[C@@H](c3ccccc3F)C(C(=O)O)=CC[C@H]2c2cccc(Cl)c2)cc1	-4.7
CC(C)NC(C)Cc1ccc(I)cc1 (stereo not given)	0.0
CCN(CC)C(=O)c1nc[nH]c1C(=O)N1CCN(c2ccccc2)CC1	-7.6
C=CCN1c2ccccc2C(=O)CS1(=O)=O	-1.8
O=C(N/N=C/c1ccccn1)c1ccc(NC(=O)c2ccc(F)cc2)cc1	-8.4
O=C1C=C(c2cccc(Cl)c2O)C[C@@H](c2ccc3c(c2)OCO3)C1	-5.7
CCOc1ccccc1C(=O)NC(C(=O)N(C)Cc1ccc2c(c1)OCO2)C(C)C (stereo not given)	7.0
O=C(COC(=O)COc1ccccc1)Nc1ccc2c(c1)OCCO2	-0.7
CC(OC(=O)C1CC1)C(=O)Nc1cc(Cl)cc(Cl)c1 (stereo not given)	4.7
C[C@]12CC[C@H]3[C@@H](CCC4=CC(=O)CC[C@@H]43)[C@@H]1CC[C@@H]2O	-6.5
CCN(C[C@H]1N[C@@](C)(C(=O)OC)[C@H]2C(=O)N(Cc3ccccc3)C(=O)[C@@H]12)C(=O)c1ccccc1	-2.5
O=C(CCc1ccccc1)NNC(=O)c1ccncc1	92.6
Cc1ccc(S(=O)(=O)N2[C@@H](c3ccccc3F)C(C(=O)O)=CC[C@H]2c2cccs2)cc1	-2.2
Cc1cc(Cl)ccc1NC(=O)COC(=O)c1c(C)noc1C	3.0
CN1CCN(S(=O)(=O)c2cccc(C(=O)N3CCN(c4ccccc4)CC3)c2)CC1	2.0
Cc1ccc(S(=O)(=O)N2CCN(C(=O)Cn3cnc4c3c(=O)n(C)c(=O)n4C)CC2)cc1C	-1.0
Cc1csc(=O)n1CC(=O)OCc1nnc(-c2ccc([N+](=O)[O-])cc2)o1	-5.8
Cc1ccc(CNC(=O)COC(=O)c2cccnc2Cl)cc1	-2.8
O=C(COC(=O)C1CCCCC1)NCc1ccc(Cl)cc1	-1.0
C#CCOCCOCCOCCNc1nc(N2CCN(C(=O)CCCCCCCCCCNC(=O)[C@@H](CCC(=O)O)n3cc(CCCCCN)nn3)CC2)nc(N2CCN(C(=O)CCCCCCCCCCNC(=O)[C@H](CCCCN)n3cc(C[C@@H](C)CC)nn3)CC2)n1	70.5
C[C@@H](NC(=O)c1[nH]cnc1C(=O)Nc1ccon1)c1ccccc1	49.2
Cc1ccc(S(=O)(=O)Nc2cc(Cl)ccc2-n2cncn2)cc1	-2.4

(list continues)
SMILES	Mtb bLac sens
COc1ccc2cc(CCOC3CCCCO3)ncc2c1 (stereo not given)	4.8
CS(=O)(=O)c1ccccc1C(=O)Nc1ccc(S(=O)(=O)N2CCCC2)cc1	2.6
COc1ccc(-c2noc(COC(=O)c3ccco3)n2)cc1OC	18.0
CC(=O)Nc1ccc(NC(=O)COC(=O)Cn2cnc3ccccc32)cc1	-3.4
O=C(COC(=O)/C=C/c1ccccc1[N+](=O)[O-])Nc1ccc2[nH]c(=O)[nH]c2c1	-4.5
CC1=C([N+](=O)[O-])C(c2ccc(Cl)cc2)NC(=O)N1C (stereo not given)	-9.1
CC(C)(C)OC(=O)C[C@@H]1C/C=C\C[C@@H](CC(=O)N[C@H](CO)Cc2ccccc2)C(=O)NC[C@@H](c2ccccc2)OC1=O	-5.1
Cc1cccc(Nc2nnc(SCC(=O)NC(=O)CN3CCCC3=O)s2)c1	-6.4
COc1ccc([C@@H]2CC=C(C(=O)O)[C@H](c3ccc(Br)cc3)N2S(=O)(=O)c2ccccc2C)cc1	1.0
Cc1ccc(C)c(S(=O)(=O)Nc2ccc(C(=O)N3CC(C)OC(C)C3)cc2)c1 (stereo not given)	1.9
CCN(C[C@H]1N[C@@](Cc2ccccc2)(C(=O)OC)[C@H]2C(=O)N(Cc3ccccc3)C(=O)[C@@H]12)C(=O)Nc1ccc(C)cc1	-1.8
O=C(OCC(=O)c1ccc[nH]1)c1ccc(F)c(S(=O)(=O)N2CCOCC2)c1	-1.6
CCOc1ccc(NC(=O)CNc2cccc(S(=O)(=O)N3CCCCCC3)c2)cc1OCC	-15.9

Not all compounds are listed; rates above refer to the full screens.
